Compound activity as filed in PubChem BioAssay.
HSV augment: HSV replication enhancement. HSV replication augmentation in cells, fold increase. maximum fold increase. 220,000 tested, 0.005% active. AID 1956;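 active = peak rise of 1.5-fold or more in the series; tested in PC3 cells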;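 note: first round at 10 µM; read as green reporter fluorescence; hits show the peak of a series up to 25 µM; 1 = signal of infected wells without compound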
GALR2 ag: agonists of human galanin receptor 2 (GALR2). 140,000 tested, 0.48% active. GALR2-expressing cells, agonist activation read-out. AID 803. O43603. activation, %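 (tested at 5 µM)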;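 active = above mean plus 3 SD of all compounds, about 5% in these data, not always enough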;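 note: 0% = vehicle buffer wells and 100% = reference agonist at full effect; tested in CHO reporter cells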
Target sequence (O43603 whole entry, looked up): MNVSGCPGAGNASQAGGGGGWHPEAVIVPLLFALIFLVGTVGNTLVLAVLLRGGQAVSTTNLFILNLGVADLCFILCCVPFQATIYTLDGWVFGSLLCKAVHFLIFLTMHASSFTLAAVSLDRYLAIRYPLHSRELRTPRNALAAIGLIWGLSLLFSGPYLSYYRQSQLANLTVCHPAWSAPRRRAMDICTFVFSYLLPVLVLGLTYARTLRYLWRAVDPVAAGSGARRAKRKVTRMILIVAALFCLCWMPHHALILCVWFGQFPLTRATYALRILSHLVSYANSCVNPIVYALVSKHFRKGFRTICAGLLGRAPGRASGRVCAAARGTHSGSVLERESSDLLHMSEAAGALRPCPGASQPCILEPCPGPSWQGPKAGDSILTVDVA
RGS16-Gao: modulates binding between human RGS16 and Galphao | O15492+P09471 | bead-based flow cytometry RGS16-Galphao binding, fluorescence; actives lie on both sides | binding response (% of control), % at 10 µM | 220,000 tested, 0.38% active | AID 1441;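 active = below 25% or above 175%, edge rows of some plates excepted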;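 note: Galphao activated by GDP with aluminum fluoride before binding; 100% = wells without compound and 0% = beads without RGS; some results beyond the cut were filed as inactive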
Target sequence (O15492 whole entry, looked up): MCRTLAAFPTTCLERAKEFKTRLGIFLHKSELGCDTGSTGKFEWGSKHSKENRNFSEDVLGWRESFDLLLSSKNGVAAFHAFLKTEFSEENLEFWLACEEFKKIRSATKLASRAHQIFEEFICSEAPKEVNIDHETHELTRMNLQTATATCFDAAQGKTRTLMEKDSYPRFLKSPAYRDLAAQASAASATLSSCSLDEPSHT
Target sequence (P09471 whole entry, looked up): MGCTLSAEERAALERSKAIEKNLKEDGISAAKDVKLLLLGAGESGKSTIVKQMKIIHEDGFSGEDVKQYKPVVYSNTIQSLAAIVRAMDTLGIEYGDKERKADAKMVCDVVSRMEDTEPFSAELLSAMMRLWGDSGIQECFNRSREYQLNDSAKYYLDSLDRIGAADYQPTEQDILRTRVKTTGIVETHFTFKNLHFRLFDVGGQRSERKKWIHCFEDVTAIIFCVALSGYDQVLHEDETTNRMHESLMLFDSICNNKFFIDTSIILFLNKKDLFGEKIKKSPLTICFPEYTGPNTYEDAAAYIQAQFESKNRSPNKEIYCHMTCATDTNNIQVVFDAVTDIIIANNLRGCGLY
INS promoter inh: TRM-6 insulin promoter activity inhibition; AID 1273; 130,000 tested, 0.9% active; TRM-6 cells (human fetal islet line), insulin promoter-eGFP reporter, imaging; reporter expression induced with tamoxifen; inhibition, % at 2 µM;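 active = inhibition above the mean plus 3 SD, with well images judged a real hit on visual review, cut at about 60% in these data, passing the limit was not always enough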
PKD1 inh: PKD1 (human) kinase inhibition; Q15139; PKD1 kinase fluorescence polarization assay; inhibition, %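 (about 10 µM by stock and volumes)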; 200,000 tested, 0.056% active; AID 797;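 active = inhibition of 50% or more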;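 note: controls were vehicle for no effect and a reference inhibitor for full effect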
INS promoter inh cell count: second read-out of INS promoter inh, no call of its own (marks repeat the call); normalized cell count, %; measured here: cell count, toxicity; reference of the scale not given here;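 cells exposed to compound for 48 h; stained nuclei by imaging scaled within each plate; lower means fewer cells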
HSV augment primary fold: recorded beside HSV augment, whose call it bears; fold increase; compound at 10 µM; measured here: primary screen fold increase 10 uM; tested in PC3 cells;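 GFP signal in the first replicate; 1 = infected wells without compound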
An asterisk follows results filed as active; i = inactive; . = no result given.

SMILES	HSV augment	HSV augment primary fold	GALR2 ag	RGS16-Gao	INS promoter inh	INS promoter inh cell count	PKD1 inh
COc1ccc(C(CCN2CCCCC2)c2c(O)cc(OC)cc2OC)cc1 (centres undefined)	i	0.74	.	88.6	.	.	.
CCOCC(=O)Nc1cc(C(=O)Nc2cccc(C)c2C)ccc1Cl	i	0.95	-1.9	105.0	.	.	-9.3
CCC(=O)n1nc(-c2ccccc2)nc1NCc1ccccc1	i	0.82	-0.5	92.9	86.0*	101.1*	1.4
O=C(NCc1ccco1)c1ccccc1-c1ccc(C(F)(F)F)cc1	i	1.05	-1.3	98.7	-28.9	90.0	12.9
O=C(NCCCO)C(=O)NCCc1ccc(Cl)cc1	i	0.95	-2.5	103.0	7.9	135.3	-1.9
Cc1c(NC(=O)C(C)Sc2ccccc2)c(=O)n(-c2ccccc2)n1C (centres undefined)	i	0.99	1.7	107.8	-21.7	76.5	0.4
COc1ccc(CN2CCS(=O)(=O)CC2)cc1OC	i	0.97	.	99.5	15.4	110.1	-2.0
Nc1ccc(-c2ccc(N)c(C(=O)O)c2)cc1C(=O)O	i	0.95	.	100.6	.	.	.
COc1ccc(C2N(C(=O)c3ccccc3)CCN2C(=O)c2ccc(C)cc2)cc1 (centres undefined)	i	0.71	-2.1	99.4	-19.4	99.2	-2.9
Cc1cc(C(=O)N/N=C/c2ccc(O)c([N+](=O)[O-])c2)n[nH]1	i	1.02	-0.3	80.3	.	.	-3.2
Cc1nc2ccccc2cc1C(=O)N/N=C/c1ccc([N+](=O)[O-])cc1	.	.	-0.6	71.3	75.0*	81.0*	-7.3
O=C(Nc1ccccc1)N1C2CCC1CC(O)(c1cccnc1)C2 (centres undefined)	i	1.08	-0.8	74.5	2.4	100.0	-9.7
COC(=O)c1nnn(-c2ccccc2)c1N	i	1	-1.3	101.5	-197.7	128.1	-3.1
CCOc1ccccc1-c1ccc(C(=O)NCc2ccccc2)o1	i	0.92	-1.5	103.9	45.5	70.2	-6.1
CCCCNC(=O)c1cc2c(C)cc(C)cc2[nH]1	i	1.06	.	93.4	.	.	.
Cc1ccc2[nH]c(=O)c(C3=NN(C(=O)CCC(=O)O)C(c4cccs4)C3)c(-c3ccccc3)c2c1 (centres undefined)	i	1.01	-0.3	106.7	18.2	185.7	-3.1
CN1CCN(C(=O)Cn2c(C(F)(F)F)nc3ccccc32)CC1	.	.	-3.8	73.1	-164.3	140.1	-3.8
CCN(CC)S(=O)(=O)c1cccc(C(=O)Nc2cc(C)nn2-c2ccccc2)c1	i	1.07	-1.3	119.8	.	.	-2.4
Cc1cccc(C)c1OCC(=O)Nc1ccc(N2CCOCC2)cc1	i	0.88	.	108.0	.	.	1.4
O=C(O)C1CC=CCC1C(=O)Nc1ccc(Oc2ccc(Cl)cc2)cc1 (centres undefined)	i	0.99	-0.7	98.2	-66.7	46.9	-3.4
Cc1ccc(NC(=O)C(C)N2C(=O)C3CC=C(Cl)CC3C2=O)cc1 (centres undefined)	i	0.87	-2.3	105.5	17.2	110.1	-3.6
CN(C(=O)CC(NC(=O)c1ccccc1)(c1ccccc1)c1ccccc1)c1ccccc1	i	0.98	-1.5	103.4	.	.	-8.2
CSC(=S)N/N=C(\C)c1ccc(Br)cc1	i	1.07	.	102.4	.	.	-4.0
FC(F)(F)c1nnc2c(Sc3ccccc3)nc3ccccc3n12	i	1.02	-1.5	109.7	24.2	30.0	-9.2
CC(=O)OCCNc1cc(SCc2ccco2)c2nonc2c1[N+](=O)[O-]	i	1.01	-1.1	141.2	-51.6	68.0	12.0
(continued)
SMILES	HSV augment	HSV augment primary fold	GALR2 ag	RGS16-Gao	INS promoter inh	INS promoter inh cell count	PKD1 inh
Cc1nc(-c2ccccc2OC(F)(F)F)[nH]c(=O)c1Cl	i	1	.	102.6	.	.	.
O=C(NCc1ccccc1)c1cccc(NC(=O)c2ccco2)c1	i	1	-1.1	100.6	0.0	121.5	-5.0
O=C(c1ccccc1)N(CCN1CCOCC1)C1(C(=O)Nc2ccccc2)CCCCC1	i	0.96	0.1	104.1	.	.	-10.3
C=CCn1c(SCc2csc(C)n2)nc2sc3c(c2c1=O)CCCCC3	i	0.92	-2.0	67.9	34.5	84.0	3.4
COc1ccc(NC(=O)c2ccc(OC(F)F)cc2)cc1Cl	i	0.82	-1.4	105.0	-12.5	120.2	-7.9
CC(=O)Nc1ccc(NC(=O)c2ccccc2N(C)S(C)(=O)=O)cc1	i	0.94	-2.8	106.8	-50.0	135.1	-1.9
COCC(=O)N/N=C/c1ccc(Sc2nc3ccccc3s2)o1	i	0.96	-1.2	98.4	.	.	-2.4
COC(=O)c1cc(Br)c(=O)n(Cc2ccncc2)c1	i	0.91	0.1	97.0	.	.	-6.8
CCCc1cc(=O)oc2cc(OCC(=O)N3CCc4ccccc43)ccc12	i	0.997	0.6	79.2	-27.8	79.4	-10.7
CC(C)NC(=O)C(=O)NCCN1CCN(S(=O)(=O)c2ccc(Cl)cc2)CC1	i	1.12	-1.4	103.1	.	.	-3.1
Cc1nn(C)c(C(=O)N2CCc3ccccc32)c1Cl	i	0.88	-0.9	111.7	38.5	130.0	0.2
Cc1cccc(C)c1-n1c(C)cc(/C=C2\NC(=O)NC2=O)c1C	i	0.79	-2.9	94.2	-31.2	156.3	-9.4
CCOC(=O)c1sc(NC(=O)c2ccc(S(=O)(=O)N(C)C)cc2)cc1C	i	0.74	-0.8	94.4	10.8	75.4	9.9
COc1ccccc1Oc1c(C)oc2c(CN3CCOCC3)c(O)ccc2c1=O	i	1.19	.	104.5	.	.	.
O=C(NCC(c1cccnc1)N1CCN(c2ccccc2F)CC1)c1cccc(Cl)c1 (centres undefined)	i	0.84	-0.8	108.6	-48.4	41.5	1.6
Cc1ccc(C(=O)COC(=O)c2cn3ccccc3n2)cc1	i	0.96	.	101.1	.	.	5.5
CC(C)c1csc(CN2CCN(Cc3ccccc3)C(CCO)C2)n1 (centres undefined)	i	1.12	.	101.7	.	.	-2.2
COc1ccc(OC(C)C(=O)Nc2ccccc2F)cc1 (centres undefined)	i	1.04	.	101.3	.	.	-4.0
Cc1cc(C(C)(C)C)cc(C)c1S(=O)(=O)N1CC(=O)Nc2ccccc21	i	0.97	.	96.1	.	.	.
CC1CCN(C(=O)C2CCN(C(=O)c3cc4sccc4n3Cc3ccc(F)cc3)CC2)CC1	i	0.97	-2.3	104.2	.	.	4.3
COc1cc(C)nc(Oc2ccc(OCCOc3ccc(C)cc3)nn2)n1	i	0.97	-0.3	96.8	-35.7	114.1	-9.0
Cc1ccccc1OC(=O)C1C(c2ccccc2)C(C(=O)O)C1c1ccccc1 (centres undefined)	i	0.88	0.5	419.6	20.8	91.4	-3.7
COC(=O)c1cc(Br)c(=O)n(-c2nccs2)c1	i	0.853	-0.3	104.9	-3.6	124.0	3.9
O=c1c([N+](=O)[O-])c[nH]c2ccccc12	i	1.09	-0.6	100.5	.	.	2.3
CCCCNc1nc2ccccc2nc1Cl	i	1.03	.	95.9	.	.	4.1

2 compounds drawn at random from those above:
SMILES	HSV augment	HSV augment primary fold	GALR2 ag	RGS16-Gao	INS promoter inh	INS promoter inh cell count	PKD1 inh
COc1ccc(C(CCN2CCCCC2)c2c(O)cc(OC)cc2OC)cc1 (centres undefined)	i	0.74	.	88.6	.	.	.
COc1ccccc1Oc1c(C)oc2c(CN3CCOCC3)c(O)ccc2c1=O	i	1.19	.	104.5	.	.	.

The main list resumes; the 7 compounds before the break are reprinted first.
SMILES	HSV augment	HSV augment primary fold	GALR2 ag	RGS16-Gao	INS promoter inh	INS promoter inh cell count	PKD1 inh
Cc1cc(C(C)(C)C)cc(C)c1S(=O)(=O)N1CC(=O)Nc2ccccc21	i	0.97	.	96.1	.	.	.
CC1CCN(C(=O)C2CCN(C(=O)c3cc4sccc4n3Cc3ccc(F)cc3)CC2)CC1	i	0.97	-2.3	104.2	.	.	4.3
COc1cc(C)nc(Oc2ccc(OCCOc3ccc(C)cc3)nn2)n1	i	0.97	-0.3	96.8	-35.7	114.1	-9.0
Cc1ccccc1OC(=O)C1C(c2ccccc2)C(C(=O)O)C1c1ccccc1 (centres undefined)	i	0.88	0.5	419.6	20.8	91.4	-3.7
COC(=O)c1cc(Br)c(=O)n(-c2nccs2)c1	i	0.853	-0.3	104.9	-3.6	124.0	3.9
O=c1c([N+](=O)[O-])c[nH]c2ccccc12	i	1.09	-0.6	100.5	.	.	2.3
CCCCNc1nc2ccccc2nc1Cl	i	1.03	.	95.9	.	.	4.1
O=C(OCn1nnc2ccccc2c1=O)C12CC3CC(CC(O)(C3)C1)C2	i	1.07	.	101.8	36.6	145.7	10.0
COc1ccc2c(CC(=O)OCC(=O)NC(N)=O)coc2c1	i	0.86	.	103.1	.	.	.
C=CCNCCOCCOc1ccccc1-c1ccccc1	i	0.95	.	101.2	.	.	-7.1
COc1ccc(NS(=O)(=O)c2cc(NC(=O)c3cnc(C)cn3)ccc2N2CCCCC2)cc1	i	0.96	-0.1	104.7	3.3	108.7	-3.3
Cc1cc(C(=O)N/N=C\C(Br)=C\c2ccccc2)c(C)o1	i	0.92	.	95.7	.	.	4.2
Cc1csc2nc(CSc3ccc(Cl)cc3)cn12	i	0.793	-1.4	97.8	-28.9	180.6	2.7
COc1ccc(N2Cc3cccc(C(=O)N4CCN(C(=O)c5ccco5)CC4)c3C2=O)cc1	i	0.9	-1.7	215.0	.	.	2.3
N#CCCn1nc(-c2ccc(Cl)cc2)cc1Nc1ccccc1NC(=O)C(F)(F)F	i	1.11	-0.7	45.4	.	.	2.4
COc1nccc(C(F)(F)F)c1C(=O)NC(=O)Nc1ccccc1	i	1.11	.	98.0	.	.	.
CCCN(CCC)CCCNc1ccc(C(=O)Nc2cccc(OC)c2)cc1[N+](=O)[O-]	i	0.89	.	94.7	.	.	-4.8
COc1cc2c(cc1OC)-c1cc(NC3CCCCCC3)nc(=O)n1CC2	i	0.53	-0.6	104.3	24.2	114.5	-11.5
CCN1C(=O)C(CC(=O)NCc2ccc(Cl)cc2)N(CC)C1=O (centres undefined)	i	1.14	-1.4	99.3	-52.4	93.1	-8.1
COc1ccc(-n2nc(C(=O)O)c3ccccc3c2=O)cc1	i	0.98	-1.4	107.4	46.9	136.8	-5.9
CCOC(=O)N1CCN(S(=O)(=O)c2cc(-c3nn4c(C)nnc4c4ccccc34)ccc2C)CC1	i	0.79	-0.2	110.3	16.2	85.2	-17.6
Cc1[nH][nH]c(=O)c1C(c1c(C)[nH][nH]c1=O)c1cn(Cc2ccc(Cl)c(Cl)c2)c2ccccc12	i	0.97	0.3	98.8	.	.	9.5
COc1ccccc1C(=O)NNC(=O)C(=O)NC(C)(C)C	i	1.02	.	103.1	-53.9	141.3	8.4
CCCN=C1NC(=O)C(CC(=O)NCCc2ccc(OC)c(OC)c2)S1 (centres undefined)	i	0.87	0.6	97.5	.	.	-8.6
Cc1oc(-c2ccc(Cl)cc2)[n+]([O-])c1C	i	0.973	-1.3	103.0	.	.	11.2
COc1cccc(CNn2cn[nH]c2=S)c1OCc1ccccc1	i	0.96	.	94.5	17.6	109.4	-0.6
Clc1ccccc1-c1nn2c(-c3ccccn3)nnc2s1	i	0.9	-1.0	104.2	18.5	124.9	-5.8
COC(=O)c1ccccc1OCCCN(C)C	i	0.95	-0.6	100.7	9.7	99.1	1.0
COC(=O)c1ccccc1NC1=C/C(=N\S(=O)(=O)c2cccs2)c2ccccc2C1=O	i	0.58	0.6	91.2	0.0	46.3	-7.6
COc1cc(/C=C(\C#N)C(=O)NCC2CCCO2)c([N+](=O)[O-])cc1OC (centres undefined)	i	0.99	-2.3	103.6	35.5	58.7	-6.9
CC(=O)Nc1ccc(NC(=O)c2cccc3c2-c2ccccc2C3=O)cc1	i	0.89	.	115.1	75.0*	25.0*	-8.6
CS(=O)(=O)N1CCN(c2ccccc2[N+](=O)[O-])CC1	i	0.9	.	98.5	.	.	0.6
(more compounds)
SMILES	HSV augment	HSV augment primary fold	GALR2 ag	RGS16-Gao	INS promoter inh	INS promoter inh cell count	PKD1 inh
CCC(=O)NC(Nc1sc2c(c1C(=O)OC)CCCC2)(C(F)(F)F)C(F)(F)F	i	1.03	-1.9	99.2	.	.	1.7
CCCCC(=O)/C=C/n1c(=S)oc2ccccc21	i	0.56	0.6	99.9	-34.3	133.0	-4.0
COc1ccc(C(=O)NCc2cn3ccsc3n2)cc1OC	i	0.92	-1.4	101.6	.	.	0.4
Cn1cnnc1SCC(=O)c1cc2ccccc2o1	i	0.9	.	105.3	0.0	132.6	-6.0
Cc1ccc(S(=O)(=O)NCC(=O)OCC(=O)c2ccc(Br)s2)cc1	i	1.06	-2.3	99.7	23.6	100.2	-4.6
Cc1cc2ccccn2c1C(=O)c1ccc(S(=O)(=O)N(C)C)cc1	i	0.87	.	104.1	.	.	3.0

No enrichment for hits. Share with any hit: about 1.1%.
